HPGD inh = blocks human HPGD enzyme activity. P15428. purified HPGD, NADH fluorescence kinetic, PGE2 substrate. 150,000 tested, 4.3% active. Potency, µM, inactives show at the top dose activity change, negative = inhibition, most hits filed as inhibitors; active = well fitted inhibition curve with a large enough effect (not every such curve was filed as active); inconclusive = small, poorly fitted or top-dose-only effect, or another doubt; inactive = no such curve, though single readings can be large or run the other way;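 also: top concentration of the series not given in the record; plate controls included wells without enzyme; inactives centre near -10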
Target sequence (P15428 whole entry, looked up): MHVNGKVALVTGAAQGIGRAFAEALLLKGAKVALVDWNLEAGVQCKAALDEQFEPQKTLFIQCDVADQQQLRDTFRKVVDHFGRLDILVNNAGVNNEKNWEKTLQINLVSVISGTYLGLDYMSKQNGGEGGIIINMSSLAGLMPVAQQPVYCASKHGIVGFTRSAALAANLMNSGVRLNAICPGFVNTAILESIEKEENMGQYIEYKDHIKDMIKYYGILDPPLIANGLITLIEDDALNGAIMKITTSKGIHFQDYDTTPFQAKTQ
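NADH formation kinetics: reaction with 30 uM PGE2 and 1 mM NAD+ (final), 20 nM enzyme, Tris-HCl pH 8 with Tween 20, after 15 min compound preincubation at room temperature. Fluorescence change, last versus first of five reads.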
An asterisk follows results filed as active; ? = inconclusive; & = joins results of further samples. % is scaled to controls: 0 for no effect and ±100 for the full control effect; potency is read from the fitted curve at half-maximal effect. These rows are one share of the data. The share of hits here may be higher or lower than overall.

SMILES | HPGD inh
N#Cc1ccccc1S(=O)(=O)N1CCN(c2ccc(S(=O)(=O)N3CCOCC3)cn2)CC1 | -5.5%
O=C(NC1CCCCC1)C(c1cccs1)N(C(=O)c1ccco1)c1ccc2c(c1)OCCO2 (configuration not stated) | -9.1%
COc1ccc(S(=O)(=O)NCC(=O)N(CC(=O)NCC2CCCO2)c2ccccc2C)cc1 (configuration not stated) | -11.5%
CCCc1cc(N2CCN(C(=O)c3ccco3)CC2)n2c(nc3ccccc32)c1C#N | ?
CCc1c(C)[nH]c2c(C)cccc2c1=O | -14.4%
O=C(/C=C/c1ccc(Cl)cc1Cl)NCCSCc1ccccc1 | 14.1µM*
CC(=O)Nc1ccc(OCC(O)Cn2c3ccccc3c3ccccc32)cc1 (configuration not stated) | -11.8%
O=C1C(C2=NC(C(=O)O)C3C(=O)N(c4ccccc4)C(=O)C23)=C(O)c2ccccc21 (configuration not stated) | -21.5%
NCCCCNS(=O)(=O)c1cccc2c(Cl)cccc12 | -19.0%
O=C(COC(=O)c1ccccc1Nc1ccc(SC(F)F)cc1)NCc1ccco1 | 14.1µM*
CSCCOC(=O)C1=C(C)Nc2ccc(C)cc2S1 | -14.4%
Cc1ccc(S(=O)(=O)NCCSc2nnnn2C)cc1 | -1.9%
COC(=O)CSC1=C(C#N)C(c2ccc3c(c2)OCO3)C2=C(CCCC2=O)N1 (configuration not stated) | -18.3%
CCOc1ccc(C2C(C(=O)c3ccco3)=C(O)C(=O)N2CCCn2ccnc2)cc1 (configuration not stated) | -11.5%
N/C(=N\OC(=O)N1c2ccccc2Sc2ccccc21)c1ccccc1 | 17.8µM*
O=C(CSc1ncnc2c(-c3ccc(Cl)cc3)nsc12)c1ccccc1 | -18.8%
COc1ccc(OC)c(S(=O)(=O)Nc2ccc(C(N)=O)cc2)c1 | -1.8%
CCOC(=O)C(NC(=O)Nc1ccc(Cl)cn1)(Oc1ccc(F)cc1)C(F)(F)F (configuration not stated) | -1.1%
Cc1ccc(C2(c3ccc(C)cc3)CC2C(=O)Nc2ccc([N+](=O)[O-])cc2O)cc1 (configuration not stated) | 14.1µM*
CC(=O)c1cccc(NC(=O)CCC2CCCC2)c1 | -24.7%
CCC(=O)N1c2ccc(C)cc2C2=NNC(=S)NC21O (configuration not stated) | -3.3%
Cc1oc(-c2cccc(Cl)c2)nc1CN1CCC(C(=O)NCc2cccnc2)CC1 | -2.9%
CCCCn1nc2cc(C(=O)NCCCCc3ccccc3)ccc2c1OCC | ?
COc1ccc(/C=N/NC(=O)c2ccccc2O)cc1CSc1ccccn1 | ?
FC(F)(F)c1cc(-c2ccc3c(c2)OCO3)nc(NCc2ccco2)n1 | ?
c1ccc2cc(-c3cc4ccccn4c3)ccc2c1 | -18.3%
CCOC(=O)C1CCN(Cc2cnc(Oc3ccc(OC)cc3)s2)CC1 | -18.0%
COc1ccccc1-c1cc(C(F)(F)F)nc(S(C)(=O)=O)n1 | 25.1µM*
CCC(C)(C)NC(=O)CN(Cc1cccs1)C(=O)CNS(=O)(=O)c1ccc(C)cc1 | -3.0%
O=C(Cn1cccc1)N1CCc2ccccc21 | -11.5%
CCCCC(=O)NC(=S)Nc1c(C)cc(Br)cc1C | ?
Cc1ccc(C)c(N(C(=O)Cn2nnc3ccccc32)C(C(=O)NC(C)(C)C)c2ccsc2)c1 (configuration not stated) | -9.5%
CC1(C)CC(=O)CC(=O)/C1=N\Nc1c(Cl)cc(Cl)cc1Cl | -4.3%
CCC1(C)Cc2c(sc3[nH]c(=O)[nH]c(=O)c23)CS1 (configuration not stated) | ?
COc1cc(/C=N/OCC(=O)NC2CCCCC2C)ccc1OCc1ccc(Cl)cc1 (configuration not stated) | -16.1%
CCOC(=O)C1CCN(c2c(N3CCCC(C(=O)OCC)C3)c(=O)c2=O)CC1 (configuration not stated) | -12.3%
Cc1cc(C)cc(-n2c(O)c(C=NC3CCS(=O)(=O)C3)c3ccccc3c2=O)c1 (configuration not stated) | -13.7%
Cc1cc2c(c(=O)o1)C(CC(C)C)C(C#N)=C(N)O2 (configuration not stated) | -23.4%
CS(=O)(=O)N(CC(=O)Nc1ccc2c(c1)OCCO2)Cc1ccccc1 | -4.6%
O=C1c2ccccc2C(=O)N1Cc1nc2ccccc2c(=O)n1CCCN1CCOCC1 | -13.5%
CCCc1nnc(NC(=O)CSc2ncn[nH]2)s1 | -5.2%
CCN(CC(=O)Nc1ccccc1OC)C(=O)COc1ccc2ccccc2c1 | -16.8%
c1csc(-c2nn3c(-c4ccncc4)nnc3s2)c1 | -8.3%
Cc1cc(C)cc(OCC(=O)OCC(=O)c2c(N)n(C)c(=O)n(C)c2=O)c1 | -0.1%
CC(C)(C)NC(=O)C1CC(=O)OC12CCCCC2 (configuration not stated) | -11.4%
CCCCN(Cc1cc2ccccc2[nH]c1=O)C(=O)c1ccccn1 | -22.2%
Cc1ncoc1C(=O)Nc1ccccc1C(N)=O | -6.8%
CC1=CC(C)(C)N2C(=O)C3(C(C#N)=C(N)Oc4cc(O)ccc43)c3c(C)c(C)cc1c32 (configuration not stated) | -3.4%
Fc1ccc(N/N=C(/c2ccccc2)c2ccccn2)cc1 | ?
COc1ccc(C(=O)NC(C)c2nnc(SCC(=O)Nc3nc(C)cs3)n2C)cc1 (configuration not stated) | -8.0%
CC(=C1C(=O)c2ccccc2C1=O)N1CCN(c2ccccn2)CC1 | -9.4%
CS(=O)(=O)Nc1ccc(C(=O)NCCSC2CCCCC2)cc1 | -22.1%
Cc1nn(-c2cccc(Cl)c2)c(Cl)c1/C=N/NC(=O)c1cccnc1 | -1.9%
O=C1CC(c2cccc(Cl)c2)CC(O)=C1C=NCCCO (configuration not stated) | -17.5%
CCCCSc1ncc(C(=O)OCC)c(N)n1 | -10.4%
C(=N\Nc1nc(-c2ccccc2)cs1)/c1cccs1 | ?
COc1ccc(O)c(C2=Nc3ccccc3N=C(c3ccco3)C2)c1 | -4.2%
CCn1c(C)c(C)c2cc(C(=O)Nc3cccc(Cl)c3)ccc21 | ?
CC(NC(=O)C1CCCCC1)c1ccc2c(c1)OCCO2 (configuration not stated) | -16.8%
COc1ccc(CCNS(=O)(=O)c2cccs2)cc1 | -12.3%

Next results
SMILES | HPGD inh
CCOc1ccccc1NC(=O)COC(=O)c1cccc(-c2ccc(OC(C)=O)cc2)c1 | -11.4%
O=C(CC1C(=O)NCCN1C(=O)c1ccc(F)cc1)OCc1ccccc1 (configuration not stated) | -2.7%
Cc1ccc(S(=O)(=O)CCC(=O)NCc2ccccc2)cc1 | -5.6%
CC1CN(C(=S)SCCN2Cc3ccccc3C2=O)CC(C)O1 (configuration not stated) | -17.2%
COc1ccc(CNC(=O)CN2CCC(C(=O)c3ccc(OC)cc3)CC2)cc1 | -27.4%
COc1c2c(cc3c1C(NC(N)=O)[N+](C)(C)CC3)OCO2 (configuration not stated) | -5.6%
O=C1NC(=O)[C@@H]2C3c4ccccc4C=CN3[C@H](C(=O)c3cccs3)[C@H]12 (some centres not stated) | -23.6%
CCC(CC)c1nnc(NC(=O)c2ccc(N3CCCCC3)c([N+](=O)[O-])c2)s1 | -25.9%
CC(C)CCNC(=O)CSc1nc2ccccc2c(=O)[nH]1 | -9.6%
CCOc1ccccc1-c1nc(SCC(=O)O)n[nH]1 | -11.4%
O=c1c(-c2ccc(Cl)cc2)nc2cnc(N3CCNCC3)nc2n1Cc1ccc(F)cc1 | ?
COc1ccc(/C(N)=N/OC(=O)CSc2ccc(C)cc2)cc1 | -8.7%
CC(=O)c1cccc(NC(=O)C2CC(=O)N(c3cccc(C)c3C)C2)c1 (configuration not stated) | -1.6%
CC(C)Cn1c(CCCNC(=O)c2ccc(F)cc2)nc2ccccc21 | -10.4%
CCOc1cc(-c2ccc3c(c2)OCO3)cc(=O)c2c(C)oc(C)c12 | -8.8%
O=c1cc(O)c(-c2cccc(Cl)c2)c(Cl)[nH]1 | -6.0%
CNC(=S)Nc1cc(C(F)(F)F)ccc1Cl | -7.4%
Cn1c(=NC(=O)CSCC(=O)N2CCOCC2)sc2ccccc21 | -16.8%
COC(=O)c1c(C#N)c(N)nc2c1CCCC2 | ?
CC(C)CCOCC(=O)Oc1ccccc1C(=O)O | -25.3%
CC(C)C(CO)NC(=O)CC(=O)NC(CO)C(C)C (configuration not stated) | -6.0%
CN(C)S(=O)(=O)c1ccc(Cl)c(NC(=O)c2ccncc2)c1 | -2.0%
COCCNC(=O)c1ccc(Cl)c(Cl)c1 | ?
CC(C)Oc1ccc(C(=O)N(Cc2ccco2)C2CCS(=O)(=O)C2)cc1 (configuration not stated) | -8.6%
COc1ccc(-c2coc3cc(OC)cc(OC)c3c2=O)cc1 | -13.9%
Cc1ccc(/C=N/N2CCN(C3c4ccccc4-c4ccccc43)CC2)s1 | -2.6%
COc1cccc(N2CCN(Cc3cccnc3)CC2)c1 | -3.6%
Cc1cccc(S(=O)(=O)NNC(=O)c2sc(C)nc2C)c1 | 0.2%
CCOC(=O)c1c(-c2ccc(-c3ccccc3)cc2)csc1NC(=O)CCN1CCOCC1 | -12.3%
C=CCNc1nc(-c2cccc(OC)c2O)nc2ccccc12 | -6.8%
COc1ccc(N2CCN(C(CNS(=O)(=O)c3cccs3)c3cccnc3)CC2)cc1 (configuration not stated) | -7.7%
CC(=O)c1c(C)[nH]c(C(=O)OC(C)C(=O)Nc2cc(S(=O)(=O)N3CCCCC3)ccc2Cl)c1C (configuration not stated) | -1.1%
CN1CCCC1CCNS(=O)(=O)c1ccc(Br)cc1 (configuration not stated) | -2.3%
CNCCC=C1c2ccccc2CCc2ccccc21 | -6.3%&6.2%&-0.3%&-3.9%&-6.8%
CCOc1ccc(C/C(N)=N/n2cnnc2)cc1 | 9.0%
Cc1nc2c(n1C1CCCCC1)C(=O)c1ccccc1C2=O | -8.9%
O=C(CN(CCO)c1ccccc1)NC12CC3CC(CC(C3)C1)C2 | 0.0%
CCOC(=O)c1[nH]c(C)c(CN(Cc2ccco2)C(=O)C(F)(F)F)c1C | -8.9%
COc1ccc(C(=O)n2c(SC)nc3cc4c(cc32)OCCO4)cc1 | -15.7%
CC(/C=C/c1ccccc1)=N/NC(=O)CNC(=O)c1ccc2c(c1)OCO2 | -12.6%
N#CC1=C(SCc2ccccc2)NC2=C(C(=O)CCC2)C1c1ccc2c(c1)OCO2 (configuration not stated) | -29.1%
CCC(C)(CC(=O)N(C)CCC#N)c1ccccc1 (configuration not stated) | -4.6%
CCC1=C2CC[C@H]3C(=O)N(C)C(=O)[C@H]3[C@H]2[C@@]2(C)C(=O)N(CC3CC3)C(=O)N2C1=O | -13.4%
CC(C)(C)n1nnnc1C(c1cccs1)N(Cc1ccc(Cl)cc1)CC1CCCO1 (configuration not stated) | -13.8%
COc1ccc(Cl)cc1S(=O)(=O)Nc1cccc(C(=O)O)c1 | -7.3%
Cc1ccc(-c2nnc(SCC#CCOC(=O)c3ccco3)o2)cc1 | -10.0%
CC(=O)N(c1ccc(N(C(C)=O)S(=O)(=O)c2cccs2)cc1)S(=O)(=O)c1cccs1 | -7.5%
CC(C)(C)c1nnc(SCC(=O)c2ccccc2)n(N)c1=O | 25.1µM*
COc1ccc(CCNC(=O)CNCC2CCCO2)cc1OC (configuration not stated) | -9.9%
O=C(N/N=C/c1cccs1)c1cc(-c2cccc3ccccc23)n[nH]1 | 25.1µM*
Cc1cc(C)c2[nH]c(=O)c(C(c3nnnn3CC3CCCO3)N3CCCC(C)C3)cc2c1 (configuration not stated) | ?
CCN(CC)c1ccc2c(Cl)cc(=O)oc2c1 | ?
Cc1ccc(-c2nnn(CC(=O)N(CC(=O)NCC3CCCO3)c3ccccc3)n2)o1 (configuration not stated) | ?
COc1ccc(-c2cc(C(F)(F)F)c3c(n2)sc2c(O)cc(=O)[nH]c23)c(OC)c1 | ?
O=c1oc2ccccc2c(NCc2ccccc2F)c1[N+](=O)[O-] | 15.8µM*
COCC(=O)OCC(=O)Nc1cc(C)c(C)cc1[N+](=O)[O-] | -10.6%

Entries from the list above containing a Cl atom:
SMILES | HPGD inh
O=C(/C=C/c1ccc(Cl)cc1Cl)NCCSCc1ccccc1 | 14.1µM*
NCCCCNS(=O)(=O)c1cccc2c(Cl)cccc12 | -19.0%
O=C(CSc1ncnc2c(-c3ccc(Cl)cc3)nsc12)c1ccccc1 | -18.8%
CCOC(=O)C(NC(=O)Nc1ccc(Cl)cn1)(Oc1ccc(F)cc1)C(F)(F)F (configuration not stated) | -1.1%
Cc1oc(-c2cccc(Cl)c2)nc1CN1CCC(C(=O)NCc2cccnc2)CC1 | -2.9%
CC1(C)CC(=O)CC(=O)/C1=N\Nc1c(Cl)cc(Cl)cc1Cl | -4.3%
COc1cc(/C=N/OCC(=O)NC2CCCCC2C)ccc1OCc1ccc(Cl)cc1 (configuration not stated) | -16.1%
Cc1nn(-c2cccc(Cl)c2)c(Cl)c1/C=N/NC(=O)c1cccnc1 | -1.9%
O=C1CC(c2cccc(Cl)c2)CC(O)=C1C=NCCCO (configuration not stated) | -17.5%
CCn1c(C)c(C)c2cc(C(=O)Nc3cccc(Cl)c3)ccc21 | ?
O=c1c(-c2ccc(Cl)cc2)nc2cnc(N3CCNCC3)nc2n1Cc1ccc(F)cc1 | ?
O=c1cc(O)c(-c2cccc(Cl)c2)c(Cl)[nH]1 | -6.0%
CNC(=S)Nc1cc(C(F)(F)F)ccc1Cl | -7.4%
CN(C)S(=O)(=O)c1ccc(Cl)c(NC(=O)c2ccncc2)c1 | -2.0%
COCCNC(=O)c1ccc(Cl)c(Cl)c1 | ?
CC(=O)c1c(C)[nH]c(C(=O)OC(C)C(=O)Nc2cc(S(=O)(=O)N3CCCCC3)ccc2Cl)c1C (configuration not stated) | -1.1%
CC(C)(C)n1nnnc1C(c1cccs1)N(Cc1ccc(Cl)cc1)CC1CCCO1 (configuration not stated) | -13.8%
COc1ccc(Cl)cc1S(=O)(=O)Nc1cccc(C(=O)O)c1 | -7.3%
CCN(CC)c1ccc2c(Cl)cc(=O)oc2c1 | ?

Compound activity: PubChem, National Center for Advancing Translational Sciences (NCATS)
